Ba CapD inh: CapD enzyme inhibition. purified CapD enzyme, fluorescence intensity read-out; stronger effect = lower value; some hits fall short of the stated cut. actives 0.23% (n = 140,000). z-score (test concentration not listed);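 active means z-score under -4 in either of two replicates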;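 further: stock transfer was 100 nL into about 40 µL; score is relative to mean and spread of the plate; one replicate is shown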
AID504770: growth inhibitors of E. coli YBA685 in a screen for V. cholerae RctB (chromosome II replication) inhibitors; E. coli YBA685 rctB-dependent plasmid, OD600 growth, 3 h; stronger effect = lower value; z-score (test concentration not listed); actives 0.27% (n = 130,000); AID 504770;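 active means z-score under -2 on both plates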;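 further: wells of about 30 µL received 100 nL stock; score is relative to mean and SD of the test wells; the first replicate is given; strong numbers were not always called active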
* hit, by the source's call; / = not tested or not shown; & = joins results of further samples.

# | SMILES | Ba CapD inh | AID504770
1 | OC(c1ccc(Cl)cc1)c1nnc(-c2ccccc2)o1 (stereo not drawn) | / | -0.7
2 | CCOc1ccc(CN(C2CC2)S(=O)(=O)c2ccc(S(=O)(=O)N(C)C)cc2)cc1 | -0.33 | -0.35
3 | C=CCn1c(=S)sc2c(=O)n(Cc3cccc(C(F)(F)F)c3)cnc21 | / | -0.05
4 | O=C(NCc1ccc2c(c1)CCO2)c1cccs1 | 0.34 | -1.1
5 | Cc1ccc(NC(=S)Nc2cc(C(=O)N3CCC4(CC3)OCCO4)ccc2N2CC3CC(C2)c2cccc(=O)n2C3)cc1 (stereo not drawn) | -0.28 | 0.4
6 | COC(=O)c1cccc(Cn2nc(C)c(Br)c2C)c1 | 0.24 | /
7 | CC1=NN(CCC#N)C(=O)/C1=C\c1ccc(N(C)C)cc1 | / | 0.7
8 | FC(F)(F)c1cc(Br)cc(Br)c1 | / | 0.2
9 | O=C1C=C(Cl)CC(c2ccc(C(F)(F)F)cc2)C1 (stereo not drawn) | 0.32 | /
10 | O=C(NNc1ncnc2sc3c(c12)CCCC3)c1ccccc1-n1cccc1 | / | -0.05
11 | Cc1cc(NC(=O)c2cc(-c3cccc(O)c3)on2)no1 | -0.5 | -1
12 | CN(C)/N=C(\NO)c1c(F)cccc1Cl | 9.5 | 0.35
13 | Cc1ccc(NC(=O)C2CCCN(S(=O)(=O)c3ccc4c(c3)CC(C)N4C(=O)C3CC3)C2)nc1 (stereo not drawn) | 0.31 | -1.6
14 | CC(CCc1ccccc1)NC(=O)CN1CC(C)OC(C)C1 (stereo not drawn) | / | 0
15 | CNC1=C([N+](=O)[O-])CC([N+](=O)[O-])=C(N2CCN(S(C)(=O)=O)CC2)N1C | -1.4 | /
16 | CC(=NCCN1CCN(C(=O)C(C)C)CC1)c1c(C(F)(F)F)[nH]n(-c2nc3ccccc3s2)c1=O | 0.11 | /
17 | O=C1CCC(C(=O)OCc2nnc(-c3ccccc3)o2)=NN1 | / | -0.15
18 | CSc1nnc(CCNC(=O)N2CCOCC2)n1C(C)C | / | -0.55
19 | CN(C)/C=C/C(=O)c1ccccc1 | -4.9* | -1.1
20 | CN(C)S(=O)(=O)c1ccc(C(=O)N2CCCCCCC2)cc1 | / | 0.05
21 | COC(=O)Cn1cnc2c(cnn2-c2ccc(F)cc2)c1=O | 0.05 | 0.2
22 | CCOC(=O)C1=C(C)NC2=C(C(=O)C(C(=O)OCC)C(c3ccccc3OC)C2)C1c1ccc(OC)c(OC)c1 (stereo not drawn) | 4.7 | /
23 | O=C(COC(=O)c1ccc2c(=O)n3c(nc2c1)CCCCC3)Nc1ccc2c(c1)OCCO2 | / | -0.4
24 | CCc1nc(NCC2CCCO2)c(C#N)c2c1COC(C)(C)C2 (stereo not drawn) | 71 | -0.5
25 | COc1ccc(C2C3=C(CC(c4cccc([N+](=O)[O-])c4)CC3=O)Nc3ccccc3N2C(C)=O)cc1OC (stereo not drawn) | -1.4 | /
26 | COc1ccc(C(=O)N2CCc3ccccc32)cc1OC | -0.41 | 0.35
27 | N#Cc1ccccc1Cn1cc(C=C2C(=O)NC(=O)NC2=O)c2ccccc21 | 0.035 | 0.3
28 | CCCCNC(=O)C1CCC(CNS(=O)(=O)c2ccccc2)CC1 (stereo not drawn) | 0.78 | -1.3
29 | Cc1ccc(Nc2nc(Oc3ccc(=O)n(-c4ccccc4)n3)nc(N(C)C)n2)cc1 | -1.2 | 0.3
30 | N#CCc1c(C#N)c(N)nc(N2CCN(Cc3ccc4c(c3)OCO4)CC2)c1C#N | / | -1.4
31 | CCC1c2[nH]c3ccccc3c2CCN1C(=O)c1ccc(Cl)cc1 (stereo not drawn) | -0.09 | -1.1
32 | Cc1oc(S(=O)(=O)N2CCOCC2)cc1-c1nc(-c2ccc(C(F)(F)F)cc2)no1 | -0.2 | 0.9
33 | O=C1N2CN(C3CCCCC3)CN3C(=O)N4CN(C5CCCCC5)CN1C4C23 (stereo not drawn) | -0.085 | /
34 | NCC(c1ccco1)N1CCOCC1 (stereo not drawn) | / | -0.4
35 | Cc1ccc(S(=O)(=O)NCCc2cccs2)cc1 | -0.73 | 2
36 | Cc1nc(-c2ccncc2)nc(NCCNc2ccc(C(F)(F)F)cn2)c1Cl | 1.7 | -0.05
37 | Cc1ccc(N2C(=O)C(=O)/C(=C(\O)c3ccc(Cl)cc3)C2c2ccccc2F)cc1 (stereo not drawn) | 5.9 | /
38 | Nc1ncnc2c1ncn2CCNCc1ccc2c(c1)OCO2 | 0.41 | 1.1
39 | O=C(NCC(=O)c1cccs1)NC1CCCC1 | / | -0.15
40 | COc1ccc(CCNC(=O)c2cc(S(=O)(=O)N3CCOCC3)ccc2Sc2ccc(F)cc2)cc1OC | -0.25 | /
41 | O=C(NCc1ccc(F)cc1)c1cccc2c1C(=O)N(Cc1cccnc1)C2 | -0.54 | -0.45
42 | CCCOc1nc(N)c(C#N)c(-c2ccccc2F)c1C#N | / | 0.4
43 | COc1cc(S(=O)(=O)NCc2ccco2)c(OC)cc1Br | 0.17 | -0.55
44 | O=C(CN1C(=O)c2ccccc2C1=O)NCC(F)(F)F | / | -0.85
45 | S=c1[nH]c2c(s1)sc1ccccc12 | / | 0.45
46 | O=C(c1cccc(C(F)(F)F)c1)N1CCN(c2cccc3[nH]ccc23)CC1 | 1.3 | 0.45
47 | CCc1ccc(S(=O)(=O)c2cn(C)c3ccccc3c2=O)cc1 | -1.1 | -0.25
48 | Cc1cccc(N2C(=O)CC(Sc3ncccc3C(=O)O)C2=O)c1 (stereo not drawn) | 0.28 | -0.2
49 | CCCC(C)C(=O)Nc1nnc(C)s1 (stereo not drawn) | -0.63 | -0.65
50 | O=C(Nc1ccccc1C(=O)NCc1ccccc1)c1ccccc1 | -0.69 | -1.1

4 entries from above, with one line to a screen:
42) CCCOc1nc(N)c(C#N)c(-c2ccccc2F)c1C#N
43) COc1cc(S(=O)(=O)NCc2ccco2)c(OC)cc1Br
44) O=C(CN1C(=O)c2ccccc2C1=O)NCC(F)(F)F
45) S=c1[nH]c2c(s1)sc1ccccc12

| Screen / compound no. | 42 | 43 | 44 | 45 |
| --- | --- | --- | --- | --- |
| Ba CapD inh | / | 0.17 | / | / |
| AID504770 | 0.4 | -0.55 | -0.85 | 0.45 |

Remaining list, next part
# | SMILES | Ba CapD inh | AID504770
51 | Cn1c(CCC(=O)NC2CCCCC2)nc2ccccc21 | 0.82 | /
52 | CCCCCCC(=O)Nc1cccc(C(=O)N/N=C/c2ccc(OC)c(C)c2OC)c1 | 1.9 | /
53 | Nc1ncc(N=Nc2cc(C(=O)O)cc(C(=O)O)c2)s1 | / | 0
54 | COc1ccc(OC)c(NC(C)=O)c1 | 0.085 | /
55 | CN(C)Cn1c(O)c(N=NC(=O)COc2ccc(Cl)cc2)c2ccccc21 | 0.21 | -0.3
56 | CC(C)(C)c1ccc(O)c(CN2CCCCC2)c1 | -0.62 | /
57 | CCC(C)n1nccc1NC(=O)C(C)Sc1ccccc1F (stereo not drawn) | / | -2.2
58 | CC(C)N(CC(N)=O)c1nc(-c2cccnc2)nc2ccccc12 | / | 0.2
59 | Cc1ccc(N/C(=N/C(N)=S)c2ccccc2)cc1 | -0.22 | -0.3
60 | O=C(O)c1cc(-c2ccc(Cl)cc2)cs1 | 0.19 | /
61 | CCOc1ccc(C(=O)Nc2nnc(C(C)C)s2)cc1 | -0.41 | 0.1
62 | Cn1cc(NC(=O)OCc2ccc(Cl)cc2Cl)c(C(F)(F)F)n1 | 0.18 | /
63 | O=C(O)COc1ccccc1/C=N/NC(=O)c1ccc(C(F)(F)F)cc1 | 0.23 | /
64 | CC1CCN(C(=O)c2ccc(-c3cnn(C)c3)nc2)CC1 | -0.64 | /
65 | C[n+]1ccccc1/C=N/O | 0.28&0.015 | -0.3
66 | CCOC(=O)N1CCc2c(sc(NC(=O)c3ccco3)c2C(=O)Nc2cc(OC)ccc2OC)C1 | 0.76 | -0.6
67 | Cc1ccc2nc(SCC(=O)Nc3cccc(Cl)c3C)[nH]c2c1 | 0.12 | /
68 | FC(F)(F)c1cccc(N2Cc3ccccc3C2)c1 | 0.14 | -0.1
69 | COC(=O)c1cccnc1NC(=S)NC1CCCCC1 | 1.7 | -0.1
70 | COC(=O)c1ccc2nc(C)ccc2c1 | 0.17 | -0.65

In a second layout: entries from further up.
69) COC(=O)c1cccnc1NC(=S)NC1CCCCC1
  Ba CapD inh: 1.7	AID504770: -0.1
44) O=C(CN1C(=O)c2ccccc2C1=O)NCC(F)(F)F
  Ba CapD inh: /	AID504770: -0.85
17) O=C1CCC(C(=O)OCc2nnc(-c3ccccc3)o2)=NN1
  Ba CapD inh: /	AID504770: -0.15
26) COc1ccc(C(=O)N2CCc3ccccc32)cc1OC
  Ba CapD inh: -0.41	AID504770: 0.35

Next part
# | SMILES | Ba CapD inh | AID504770
71 | Cc1cc2ccccc2c(=O)n1CC(=O)NCCC1=CCCCC1 | 7 | 1.8
72 | O=C(O)CN1C(=O)CSc2ccccc21 | -0.13 | -0.35
73 | CCOC(=O)c1sc2nc(NC(=O)c3cccs3)sc2c1C | / | -0.55
74 | CCOC(=O)c1c(NC(=O)CSc2nc(C)cc(C)n2)sc2c1CCC2 | -0.43 | 0.7
75 | Cc1cccc(C)c1NC(=O)C1c2cccc[n+]2CC(=O)N1CCO (stereo not drawn) | -0.2 | 0.3
76 | COC(=O)c1ccc2cc(C(=O)O)ccc2c1 | 32 | -0.1
77 | N#Cc1ccc(-c2ccc(F)cc2)nc1Oc1ccc(Cl)c(Cl)c1 | 0.65 | /
78 | CCCCNS(=O)(=O)c1ccc(S(=O)(=O)n2cnc3ccccc32)cc1 | / | 0.7
79 | CC1=[N+]([O-])C(N2CCOCC2)C(O)(c2ccccc2)C1 (stereo not drawn) | 0.35 | 0
80 | Cc1[nH]c2ccc(Cl)cc2c(=O)c1I | 0.3 | /
81 | FC(F)(F)Oc1ccc(N=Cc2ccc(Br)cc2)cc1 | -0.23 | -1.2
82 | Cc1nc2ccc(C(=O)OCC(=O)C(C)(C)C)cc2nc1C | / | 1.3
83 | CC(C)(C)OCC(O)CN1CCN(C(=O)c2ccccc2)CC1 (stereo not drawn) | / | -0.5
84 | CS/C(=N\S(=O)(=O)c1ccc(C)cc1)N1CCCCCC1 | / | -0.2
85 | O=C(COC(=O)C1(CC(=O)N2CCOCC2)CCCC1)Nc1c(F)cccc1F | / | -0.2
86 | Nc1cc(N)nc(SCC(=O)NCc2ccccc2)n1 | / | -0.25
87 | COC(=O)CCC(=O)N1CCOCCOCCOCC1 | 0.44 | -0.75
88 | COc1ccccc1NC(=O)COc1ccccc1O | -0.49 | -0.15
89 | CN1CCc2c(sc(-n3cccc3)c2CNC(=O)NCc2ccccc2)C1 | -0.6 | -1.4
90 | CCOP(=O)(/C(C#N)=C(\C)O)c1ccccc1 (stereo not drawn) | / | -0.3
91 | COC(=O)C1=C(Nc2ccccc2NC(=O)c2ccccc2C(=O)O)CSC1 | -0.4 | -0.95
92 | CCOC(=O)N1CCN(C(=O)C(NC(=O)c2ccc(C(C)(C)C)cc2)C(C)C)CC1 (stereo not drawn) | / | -0.5
93 | COc1cccc(-c2ocnc2C(=O)Nc2ccc(N3Cc4ccccc4C3)cc2)c1 | / | -0.75
94 | COc1ccc(OC)c(C2N(c3ccc(C)cc3)CCN2c2ccc(C)cc2)c1 | -0.78 | /
95 | CC1(C)CC(=O)c2cc(-c3ccccc3)n(CC(=O)OCN3C(=O)c4ccccc4C3=O)c2C1 | 0.25 | /
96 | COc1cccc(CCOC(=O)NCC(C)c2ccc(Cl)cc2)c1 (stereo not drawn) | -1.1 | /
97 | Cc1csc2c(N3CCN(C(=O)c4ccc(Cl)cc4)CC3)ncnc12 | 0.42 | -0.2
98 | O=C(C(c1ccccc1)c1ccccc1)N1CCN(c2ncc(-c3ccc(Cl)cc3)cn2)CC1 | -0.49 | /
99 | C=CCC1(CC(C)C)C(=O)NC(=O)NC1=O | 1.3 | /
100 | COC(=O)c1cccc(NC(=O)CSc2ncccn2)c1 | -0.14 | -0.3
101 | Cc1nc(N2CCN(c3ccccn3)CC2)c2c(C)c(C(=O)N3CCOCC3)sc2n1 | -0.51 | /
102 | CC(=O)Nc1ccc(C(=O)OCC(=O)N2CCc3ccccc3C2)cc1 | 0.7 | 0
103 | CCOc1ccc(C(Nc2ccc(Br)cc2)P2(=O)OCCCO2)cc1 (stereo not drawn) | -0.17 | /
104 | O=C1CS/C(=N\N=C2C3CC4CC(C3)CC2C4)N1 | 0.15 | -0.4
105 | CCCCC1CCC(C(=O)Nc2nonc2-c2ccc(OCC)c(OCC)c2)CC1 (stereo not drawn) | -0.34 | -0.85
106 | COc1ccc(CNC(=O)CN2CC(C)CC(C)C2)c(OC)c1 (stereo not drawn) | / | -0.3
107 | COc1ccccc1NC(=O)N1CCN(Cc2ccccc2)CC1 | / | 0.4
108 | COc1ccc(S(=O)(=O)N2C(C)CCCC2C)cc1 (stereo not drawn) | 0.33 | 0.35
109 | CCCCCOc1ccc(N2C(=O)C3C4c5ccc(C(C)(C)C)cc5C(c5ccc(C(C)(C)C)cc54)C3C2=O)cc1 (stereo not drawn) | 0 | /
110 | CCOc1ccc(S(=O)(=O)N(C)CC(=O)NC2CCCCC2)cc1C | -0.45 | -0.6
111 | NC(=O)c1ccc(N=Cc2ccc(O)cc2)cc1 | -0.23 | -0.4
112 | CC(=O)S[C@@H]1CC2=CC(=O)CC[C@]2(C)[C@H]2CC[C@@]3(C)[C@@H](CC[C@@]34CCC(=O)O4)C12 (stereo partly drawn) | / | 1.2
113 | COc1cc2c(cc1OC)C(c1ccc([N+](=O)[O-])cc1)=NCC2 | 0.04 | /
114 | Cc1cc(=O)[nH]c(NN=C2CCN(Cc3ccccc3)CC2)n1 | / | -0.75
115 | COC(=O)c1ccc(N2C(=O)CSC2c2cc3c(cc2[N+](=O)[O-])OCO3)cc1 (stereo not drawn) | 1.8 | /
116 | CSCCSc1nc(-c2cccs2)c(-c2cccs2)[nH]1 | / | 2.4
117 | Cc1nc(SCC(=O)Nc2ccc(S(N)(=O)=O)cc2)c2c3c(sc2n1)CCCC3 | 0.95 | /

Screens from PubChem.
